HIV Env fusion = HIV envelope-mediated fusion inhibition; HeLa-JRFL Env/CEM21 cell fusion, luciferase; inhibition, % at 12.3 µM; hit rate 1.1% among 360,000;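 active = mean replicate inhibition score of at least 50 and every replicate individually at or above 50; inconclusive = only one of the two criteria met; inactive = mean below 50 and not all replicates reaching 50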;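 also: 0% = plate neutral controls and 100% = maraviroc near 300 nM; one replicate is shown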
* marks the source's active call; other numbers are inactive results; ? = inconclusive; [ ] = dose if it differs, or a comment.

SMILES | HIV Env fusion
CO[C@H]1CN(C)C(=O)c2cc(NC(=O)NC(C)C)ccc2OC[C@H](C)N(CCC(F)(F)F)C[C@@H]1C | 18[16.7 µM]
C[C@@H]1CCCCO[C@H](CN(C)CC2CCCCC2)[C@H](C)CN([C@H](C)CO)C(=O)c2cc(NC(=O)CCCN(C)C)ccc2O1 | -1[16.7 µM]
CO[C@@H](CN(C)S(=O)(=O)c1ccc(F)cc1)[C@H](C)CN(C(=O)Nc1ccccc1F)[C@@H](C)CO | -2[16.7 µM]
CC(=O)NCc1ccc(OCCCN2CCC(C(O)(c3ccccc3)c3ccccc3)CC2)cc1 | -6
COc1ccc(CN(C)C[C@H]2Oc3ccc(NS(=O)(=O)c4c(C)noc4C)cc3CC(=O)N([C@H](C)CO)C[C@H]2C)cc1 | 11[16.7 µM]
CO[C@@H]1CN(C)C(=O)c2ccc(NC(C)=O)cc2OC[C@H](C)N(Cc2cncnc2)C[C@H]1C | -3[16.7 µM]
CNC(=O)C[C@@H]1CC[C@@H]2[C@@H](COc3ccc(NC(=O)c4cc(F)cc(F)c4)cc3C(=O)N2C)O1 | 14[16.7 µM]
O=C(C[C@@H]1CC[C@H]2[C@@H](COC[C@@H](O)CN2Cc2cc(F)cc(F)c2)O1)Nc1nccs1 | -8[16.7 µM]
C/C=C/c1cnc2c(c1)C(=O)N([C@@H](C)CO)C[C@@H](C)[C@@H](CN(C)C(=O)Nc1ccc(F)cc1)O2 | 8[16.7 µM]
Cc1ccc(S(=O)(=O)NCC[C@@H]2CC[C@@H](NC(=O)CC3CC3)[C@H](CO)O2)cc1 | -10[16.7 µM]
CCCC(=O)Nc1ccc2c(c1)OC[C@H](C)N(CCC)C[C@H](C)[C@@H](OC)CN(C)C2=O | 20[16.7 µM]
O=C(C[C@@H]1C[C@H]2c3cc(NC(=O)c4ccc5c(c4)OCO5)ccc3O[C@H]2[C@H](CO)O1)NCc1ccc(Oc2ccccc2)cc1 | 6[16.7 µM]
O=C(C[C@H]1C[C@H]2c3cc(NC(=O)NC4CCCC4)ccc3O[C@H]2[C@@H](CO)O1)NCc1ccncc1 | 1[16.7 µM]
CO[C@@H]1CN(C)C(=O)c2ccc(NC(=O)NC3CCCCC3)cc2OC[C@@H](C)NC[C@H]1C | -16[16.7 µM]
COCC(=O)Nc1ccc2c(c1)C(=O)N(C)C[C@@H](OC)[C@H](C)CN(Cc1cc(F)ccc1F)[C@H](C)CO2 | 3[16.7 µM]
CC(C)NC(=O)Nc1ccc2c(c1)C(=O)N([C@@H](C)CO)C[C@H](C)[C@H](CN(C)C(=O)Nc1ccccc1)OCCCC[C@@H](C)O2 | 14[16.7 µM]
O=C(Cc1ccccn1)N[C@H]1CC[C@@H](CCn2cc(-c3ccccc3)nn2)O[C@@H]1CO | 5[16.7 µM]
C[C@@H]1CCCCO[C@H](CN(C)C(=O)c2ccncc2)[C@@H](C)CN([C@H](C)CO)C(=O)c2cc(N(C)C)ccc2O1 | 5[16.7 µM]
O=C(C[C@@H]1C[C@H]2c3cc(NC(=O)c4cccnc4)ccc3O[C@H]2[C@@H](CO)O1)NCc1cc(F)ccc1F | -5[16.7 µM]
O=C(N[C@H](C(=O)N1CCC[C@H]1C(=O)NC1CCCC1)c1ccccc1)C1CC1 | -1
C[C@H]1CN([C@@H](C)CO)C(=O)c2cc(C#Cc3ccccc3F)cnc2O[C@H]1CN(C)C(=O)C1CCCCC1 | -6[16.7 µM]
Cc1ccc(S(=O)(=O)Nc2ccc3c(c2)C(=O)N([C@H](C)CO)C[C@@H](C)[C@H](CN(C)S(=O)(=O)c2ccc(F)cc2)O3)cc1 | 60*[16.7 µM]
O=C(C[C@H]1C[C@H]2c3cc(NC(=O)Nc4ccccc4)ccc3O[C@H]2[C@@H](CO)O1)NCc1ccccc1 | -25[16.7 µM]
COc1ccc(CN(C)C[C@@H]2Oc3ccc(NC(=O)Cn4cnnn4)cc3C(=O)N([C@@H](C)CO)C[C@@H]2C)cc1 | 10[16.7 µM]
CC(C)(C)[S@@](=O)N1Cc2cc(C(=O)NCCc3ccncc3)nc(-c3cccc(-c4ccc(C#N)cc4)c3)c2[C@H]1CCO | 19[16.7 µM]
CO[C@H]1CN(C)C(=O)c2ccc(NS(=O)(=O)c3ccccc3)cc2OC[C@H](C)N(Cc2cccnc2)C[C@H]1C | -4[16.7 µM]
CN(C)C(=O)C[C@H]1C[C@H]2c3cc(NC(=O)c4cccnc4)ccc3O[C@H]2[C@@H](CO)O1 | 1[16.7 µM]
O=C(C[C@H]1C[C@@H]2c3cc(NC(=O)c4cccnc4)ccc3O[C@@H]2[C@H](CO)O1)NCc1cc(F)ccc1F | -17[16.7 µM]
O=C(Nc1ccc(C(F)(F)F)cc1)Nc1ccc2c(c1)[C@H]1C[C@@H](CC(=O)N3CCc4ccccc4C3)O[C@H](CO)[C@H]1O2 | ?
CN1CCN(C(=O)C[C@H]2C[C@H]3c4cc(NC(=O)c5ccc6c(c5)OCO6)ccc4O[C@H]3[C@H](CO)O2)CC1 | -10[16.7 µM]
Cc1ccc(S(=O)(=O)Nc2ccc3c(c2)C(=O)N([C@@H](C)CO)C[C@@H](C)[C@@H](CN(C)C(=O)c2ccccc2)OCCCC[C@@H](C)O3)cc1 | -9[16.7 µM]
CO[C@H]1CN(C)C(=O)c2ccc(NC(=O)Cc3ccccc3)cc2OC[C@H](C)N(C(=O)c2ccccc2F)C[C@H]1C | -12[16.7 µM]
CO[C@H]1CN(C)C(=O)c2cc(NC(=O)C3CCC3)ccc2OC[C@@H](C)N(Cc2ccccn2)C[C@@H]1C | 3[16.7 µM]
O=C(NCc1ccccc1Cl)[C@@H]1[C@@H](CO)[C@@H]2Cn3c(cccc3=O)[C@@H]2N1C(=O)C1CCOCC1 | 16[16.7 µM]
O=C(Nc1ccc2c(c1)[C@@H]1C[C@@H](CC(=O)N3CCc4ccccc4C3)O[C@@H](CO)[C@@H]1O2)C1CCOCC1 | 1[16.7 µM]
CNC[C@@H]1OCCCC[C@H](C)Oc2ccc(NC(=O)Nc3cccc4ccccc34)cc2C(=O)N([C@@H](C)CO)C[C@@H]1C | 16[16.7 µM]
CO[C@H]1CC[C@H]2CCN(C)C(=O)C[C@@H](c3ccccc3)CN(C)C(=O)c3cccc(C#N)c3OC[C@H]1O2 | -1[16.7 µM]
COc1ccc(NC(=O)Nc2ccc3c(c2)[C@@H]2C[C@H](CC(=O)NCCc4ccccc4)O[C@@H](CO)[C@@H]2O3)cc1 | 1[16.7 µM]
C[C@H]1CCCCO[C@@H](CN(C)C(=O)Nc2ccc(F)cc2)[C@@H](C)CN([C@@H](C)CO)C(=O)c2cc(N(C)C)ccc2O1 | -3[16.7 µM]
C[C@@H]1ON(C)[C@H]2C[C@H]3c4cc(-c5ccc(F)cc5)ccc4CCN3C[C@@H]12 | -34
Cc1c(C2Nc3ccccc3C2C)[nH]c2ccccc12 (stereo not given) | -121
COCC(=O)Nc1ccc2c(c1)C(=O)N(C)[C@H]1CC[C@H](CC(=O)Nc3ccc(F)cc3)O[C@@H]1CO2 | -2[16.7 µM]
C[C@H](CO)N1C[C@H](C)[C@@H](CN(C)Cc2cccnc2)OCc2ccccc2-c2c(n(C)c3ccccc23)C1=O | 39[16.7 µM]
O=C(NCCc1ccccc1Cl)[C@@H]1CCCN1C(=O)[C@@H](NS(=O)(=O)c1ccc(F)cc1F)c1ccccc1 | 8
CCCNC(=O)Nc1ccc2c(c1)C(=O)N(C)C[C@H](OC)[C@@H](C)CN[C@H](C)CO2 | -17[16.7 µM]

Reprinted from the part before: 2 entries, then new ones.
SMILES | HIV Env fusion
O=C(NCCc1ccccc1Cl)[C@@H]1CCCN1C(=O)[C@@H](NS(=O)(=O)c1ccc(F)cc1F)c1ccccc1 | 8
CCCNC(=O)Nc1ccc2c(c1)C(=O)N(C)C[C@H](OC)[C@@H](C)CN[C@H](C)CO2 | -17[16.7 µM]
COC(=O)C1=C(C)N(Cc2cccc(C(F)(F)F)c2)C(=NCc2ccccc2C(F)(F)F)NC1c1ccc(Cl)cc1 (stereo not given) | -17
CO[C@@H]1CN(C)C(=O)c2ccc(NS(C)(=O)=O)cc2OC[C@@H](C)N(S(=O)(=O)CC(F)(F)F)C[C@H]1C | 6[16.7 µM]
O=C(CC1CCCC1)N[C@H](C(=O)N1CCC[C@H]1C(=O)NC1CCCC1)c1ccccc1 | ?
Cn1cc(CC(=O)Nc2ccc(Nc3cccnc3)cc2)c2ccccc21 | 11
COC(=O)C1=C(C)N(Cc2ccccc2C(F)(F)F)C(=NCc2cc(OC)c(OC)c(OC)c2)NC1c1cccc(F)c1 (stereo not given) | -98
N#CC(c1c(Cl)cccc1N1CCCCC1)N1CCCCC1 (stereo not given) | -24
O=C(NCC1CCN(C(=O)C(=O)c2cc3ccccc3o2)CC1)c1ccc2c(c1)OCC2 | 6
CCCNC(=O)C[C@H]1CC[C@H]2[C@@H](COc3ccc(NC(=O)C4CCCC4)cc3C(=O)N2C)O1 | -8[16.7 µM]
C[C@H](CO)N1C[C@H](C)[C@H](CN(C)Cc2ccccc2)Oc2ncc(-c3cccnc3)cc2C1=O | 4[16.7 µM]
CN1C[C@H](O)COC[C@@H]2O[C@@H](CC(=O)NC3CCC3)CC[C@H]21 | 13[16.7 µM]
CCS(=O)(=O)Nc1ccc2c(c1)C(=O)N(C)[C@@H]1CC[C@H](CC(=O)N[C@H]3CCN(Cc4ccccc4)C3)O[C@@H]1CO2 | -11[16.7 µM]
COc1ccc2c3c(n(C)c2c1)[C@H](CO)N(Cc1ccc(F)cc1)CC31CN(CC2CC2)C1 | 3[16.7 µM]
CO[C@H]1CN(C)C(=O)c2cc(NC(=O)Nc3ccccc3)ccc2OC[C@@H](C)NC[C@H]1C | -2[16.7 µM]
Nc1[nH]c(C(=O)c2ccc(Cl)cc2)c(-c2ccc(Br)cc2)c1C(=O)c1c[nH]c2ccc(F)cc12 | 6
C[C@@H]1CN([C@H](C)CO)C(=O)c2cc(NC(=O)CCC(F)(F)F)ccc2O[C@@H](C)CCCCO[C@@H]1CN(C)Cc1ccncc1 | 19[16.7 µM]

5 compounds from above, sorted by SMILES length, highest first:
SMILES | HIV Env fusion
CC(C)(C)[S@@](=O)N1Cc2cc(C(=O)NCCc3ccncc3)nc(-c3cccc(-c4ccc(C#N)cc4)c3)c2[C@H]1CCO | 19[16.7 µM]
O=C(Nc1ccc2c(c1)[C@@H]1C[C@@H](CC(=O)N3CCc4ccccc4C3)O[C@@H](CO)[C@@H]1O2)C1CCOCC1 | 1[16.7 µM]
O=C(NCc1ccccc1Cl)[C@@H]1[C@@H](CO)[C@@H]2Cn3c(cccc3=O)[C@@H]2N1C(=O)C1CCOCC1 | 16[16.7 µM]
COC(=O)C1=C(C)N(Cc2ccccc2C(F)(F)F)C(=NCc2cc(OC)c(OC)c(OC)c2)NC1c1cccc(F)c1 (stereo not given) | -98
Cn1cc(CC(=O)Nc2ccc(Nc3cccnc3)cc2)c2ccccc21 | 11

Later entries
SMILES | HIV Env fusion
CCCCCCCCN1C(=O)[C@@H](CC(=O)NCc2cccc(C(F)(F)F)c2)C[C@@]2(C(=O)OC)C1=C[C@H](C1CCCC1)O[C@@H]2C | 32
C[C@H]1CN([C@@H](C)CO)C(=O)c2cc(NC(=O)CCC(F)(F)F)ccc2O[C@H]1CN(C)Cc1ccc(Cl)c(Cl)c1 | 13[16.7 µM]
COC(=O)c1cc2c(c3c4cc(F)ccc4n(S(=O)(=O)c4cccc(C)c4)c13)C(=O)N(Cc1ccccc1OC)C2 | 44
CCC(=O)N1C[C@H](C)[C@H](OC)CN(C)C(=O)c2ccc(NC(=O)Nc3ccc(Cl)cc3)cc2OC[C@H]1C | -12[16.7 µM]
C[C@@H]1CN(c2ccc(N3CCN(C(=O)OC(C)(C)C)C[C@@H]3C)cc2C#N)C[C@H](C)O1 | 5
CCOC(=O)CC1(O)CSc2nc(N)cc(=O)n21 (stereo not given) | -13
CO[C@H]1CN(C)C(=O)c2ccc(NS(=O)(=O)c3ccc(F)cc3)cc2OC[C@H](C)NC[C@@H]1C | -3[16.7 µM]
Cc1ccc(S(=O)(=O)N[C@H]2CC[C@H](CCn3cc(-c4cccnc4)nn3)O[C@H]2CO)cc1 | -2[16.7 µM]
COc1ccccc1NC(=O)N1C[C@@H](O)COC[C@H]2O[C@@H](CC(=O)NCc3ccccc3)CC[C@@H]21 | -3[16.7 µM]
CC1CCCN(c2cccc3c2S(=O)(=O)N(Cc2ccc(F)cc2)[C@@H](C)[C@H](c2ccccc2)O3)C1 (stereo not given in full) | -2
C[C@@H]1CCCCO[C@@H](CN(C)C(=O)NC2CCCCC2)[C@@H](C)CN([C@H](C)CO)C(=O)c2cc(NS(C)(=O)=O)ccc2O1 | 1[16.7 µM]
COCC(=O)N(C)C[C@@H]1Oc2cc(C#Cc3cccnc3)ccc2S(=O)(=O)N([C@@H](C)CO)C[C@@H]1C | 17[16.7 µM]
C[C@H]1CN([C@@H](C)CO)C(=O)Cc2cc(NC(=O)Nc3ccc(C(F)(F)F)cc3)ccc2O[C@H]1CN(C)S(=O)(=O)c1ccc(Cl)cc1 | -88[16.7 µM]
COC(=O)c1cc2c(c3c4cc(OC)ccc4n(S(=O)(=O)c4ccc(OC)cc4)c13)C(=O)N(Cc1ccco1)C2 | 31
COc1ccccc1S(=O)(=O)N[C@@H]1C=C[C@H](CC(=O)N2CCCCC2)O[C@@H]1CO | 19[16.7 µM]
C[C@H]1CN([C@@H](C)CO)C(=O)c2cccc(NC(=O)c3ccncc3)c2O[C@H]1CN(C)CC1CCCCC1 | 2[16.7 µM]
C/C=C/c1ccc([C@@H]2[C@@H](CO)N(C(=O)CN(C)C)C23CN(C(=O)C2CCCCC2)C3)cc1 | 14[16.7 µM]

Ordered by value in HIV Env fusion (smallest number first): three of the compounds above.
SMILES | HIV Env fusion
CCOC(=O)CC1(O)CSc2nc(N)cc(=O)n21 (stereo not given) | -13
CC1CCCN(c2cccc3c2S(=O)(=O)N(Cc2ccc(F)cc2)[C@@H](C)[C@H](c2ccccc2)O3)C1 (stereo not given in full) | -2
COC(=O)c1cc2c(c3c4cc(F)ccc4n(S(=O)(=O)c4cccc(C)c4)c13)C(=O)N(Cc1ccccc1OC)C2 | 44

Compound activity from PubChem.

This is a subset; the hit share may differ from the screen's.
